Screening results from PubChem BioAssay.
PKD1 inh = PKD1 (human) kinase inhibition; Q15139; PKD1 kinase fluorescence polarization assay; inhibition, %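 (about 10 µM by stock and volumes)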; 200,000 compounds, 0.056% hits; AID 797;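 active means inhibition of 50% or more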;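 further: controls were vehicle for no effect and a reference inhibitor for full effect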
Target sequence (Q15139 whole entry, looked up): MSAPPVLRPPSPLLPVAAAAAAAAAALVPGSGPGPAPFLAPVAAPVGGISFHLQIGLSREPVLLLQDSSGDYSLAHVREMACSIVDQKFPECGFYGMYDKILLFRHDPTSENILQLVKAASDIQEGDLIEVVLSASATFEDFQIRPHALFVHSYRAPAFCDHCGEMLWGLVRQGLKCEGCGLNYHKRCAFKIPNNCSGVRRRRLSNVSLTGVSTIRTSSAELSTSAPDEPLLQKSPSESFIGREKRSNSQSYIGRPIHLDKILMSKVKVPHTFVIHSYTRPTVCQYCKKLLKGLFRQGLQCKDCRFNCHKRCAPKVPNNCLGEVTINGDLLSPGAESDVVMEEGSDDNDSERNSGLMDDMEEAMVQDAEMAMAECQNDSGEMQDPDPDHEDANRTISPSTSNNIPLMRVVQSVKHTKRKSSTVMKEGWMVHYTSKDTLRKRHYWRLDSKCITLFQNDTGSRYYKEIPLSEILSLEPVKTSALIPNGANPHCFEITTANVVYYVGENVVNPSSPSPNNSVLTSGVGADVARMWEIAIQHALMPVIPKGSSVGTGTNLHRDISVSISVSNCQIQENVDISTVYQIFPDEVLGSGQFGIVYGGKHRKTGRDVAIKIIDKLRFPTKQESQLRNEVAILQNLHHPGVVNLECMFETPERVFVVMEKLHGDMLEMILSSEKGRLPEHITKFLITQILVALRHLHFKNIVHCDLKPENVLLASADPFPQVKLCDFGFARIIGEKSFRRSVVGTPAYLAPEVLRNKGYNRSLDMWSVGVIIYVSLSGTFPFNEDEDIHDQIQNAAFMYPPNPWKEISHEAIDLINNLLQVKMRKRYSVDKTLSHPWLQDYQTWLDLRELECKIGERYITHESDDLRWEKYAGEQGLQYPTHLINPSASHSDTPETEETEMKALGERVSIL
RGS16-Gao = RGS16-Galphao interaction regulator (human). 220,000 compounds, 0.38% hits. AID 1441. O15492+P09471. bead-based flow cytometry RGS16-Galphao binding, fluorescence; actives lie on both sides. binding response (% of control), % at 10 µM;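 active means below 25% or above 175%, edge rows of some plates excepted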;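 further: Galphao activated by GDP with aluminum fluoride before binding; 100% = wells without compound and 0% = beads without RGS; some results beyond the cut were filed as inactive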
HSV augment = HSV replication enhancement; HSV replication augmentation in cells, fold increase; maximum fold increase; 220,000 compounds, 0.005% hits; AID 1956;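 active means peak rise of 1.5-fold or more in the series; inconclusive means self-fluorescent or not available for retest; tested in PC3 cells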;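 further: first round at 10 µM; read as green reporter fluorescence; hits show the peak of a series up to 25 µM; 1 = signal of infected wells without compound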
INS promoter inh = TRM-6 insulin promoter activity inhibition; inhibition, % at 2 µM; AID 1273; TRM-6 cells (human fetal islet line), insulin promoter-eGFP reporter, imaging; reporter expression induced with tamoxifen; 130,000 compounds, 0.9% hits;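 active means inhibition above the mean plus 3 SD, with well images judged a real hit on visual review, cut at about 60% in these data, passing the limit was not always enough; inconclusive means inhibition over the cutoff but images rejected on review; inactive means inhibition not above the cutoff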
GALR2 agonist = agonists of human galanin receptor 2 (GALR2). AID 803. GALR2-expressing cells, agonist activation read-out. activation, %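 (tested at 5 µM)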. 140,000 compounds, 0.48% hits;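 active means above mean plus 3 SD of all compounds, about 5% in these data, not always enough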;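 further: 0% = vehicle buffer wells and 100% = reference agonist at full effect; tested in CHO reporter cells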
INS promoter inh cell count = second read-out of INS promoter inh, no call of its own (marks repeat the call); normalized cell count, %; measured here: cell count, toxicity; reference of the scale not given here;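 cells exposed to compound for 48 h; stained nuclei by imaging scaled within each plate; lower means fewer cells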
HSV augment primary fold = also measured in HSV augment; calls as there; fold increase; compound at 10 µM; measured here: primary screen fold increase 10 uM; tested in PC3 cells;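 GFP signal in the first replicate; 1 = infected wells without compound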
* marks the source's active call; other numbers are inactive results; i = inactive; ? = inconclusive; . = not tested or not shown.

Codes: A = PKD1 inh; B = RGS16-Gao; C = HSV augment; D = HSV augment primary fold; E = INS promoter inh; F = INS promoter inh cell count; G = GALR2 agonist
> COc1ccc(NS(=O)(=O)c2ccc(NS(=O)(=O)c3ccc(SC)cc3)cc2)c(OC)c1
  A: 4; B: 114; C: i; D: 0.89; E: 11; F: 166; G: -2.0

> Cc1ccc(NC(=O)CN2C(=O)S/C(=C\c3cccn3C)C2=O)cc1
  A: 9; B: 97; C: i; D: 1; E: -25; F: 96; G: -0.2

> Cc1c(Cl)cccc1NC(=O)C(=O)NNC(=O)c1ccccc1F
  A: 7; B: 100; C: i; D: 0.77; E: .; F: .; G: .

> O=C(N/N=C/c1cc(Cl)cc(Cl)c1O)c1ccncc1
  A: .; B: 97; C: ?; D: .; E: .; F: .; G: .

> Cc1ccc2oc(=O)c(/C=C(\O)CC(C)C)nc2c1
  A: 11; B: 62; C: i; D: 0.79; E: 14; F: 97; G: -0.4

> Cc1[nH]c(=S)c(C#N)c(C)c1Cc1ccc(Cl)cc1Cl
  A: .; B: 99; C: i; D: 1.1; E: .; F: .; G: .

> CC(C)(C)c1ccc(/C=C2\SC(=O)N=C2N)cc1
  A: 2; B: 102; C: i; D: 0.79; E: -15; F: 100; G: .

> CC1CCc2sc(C(=O)OCC(=O)NCc3ccc(F)cc3)cc2C1 (configuration not stated)
  A: -6; B: 98; C: i; D: 0.93; E: .; F: .; G: -0.3

> CCOC(=S)NC(=O)c1sc2ccccc2c1Cl
  A: 0; B: 112; C: i; D: 0.94; E: -10; F: 104; G: -3.0

> Cc1ccc(-c2n[nH]c(=S)n2/N=C/c2ccncc2)cc1
  A: -3; B: 100; C: i; D: 0.91; E: -7; F: 103; G: .

> Cc1cc(C)cc(NS(=O)(=O)c2cnc(Cl)c(Cl)c2)c1
  A: 5; B: 102; C: i; D: 0.92; E: -20; F: 83; G: -1.0

> CC(C)C(c1nnnn1Cc1ccc(F)cc1)N1CCN(C2CCCC2)CC1 (configuration not stated)
  A: 4; B: 103; C: i; D: 0.96; E: .; F: .; G: .

> CCN(CC)C(=O)c1c[nH]c2ccc(S(=O)(=O)Nc3cc(C)cc(C)c3)cc2c1=O
  A: 3; B: 109; C: .; D: .; E: .; F: .; G: -2.5

> Cc1ccc(CSc2nnc(-c3ccncc3)n2C)cc1
  A: -5; B: 102; C: i; D: 1.1; E: -7; F: 77; G: 0.8

> COc1ccc(C(=O)NCC(=O)OCc2csc(-c3ccccc3)n2)cc1
  A: -8; B: 44; C: i; D: 0.99; E: .; F: .; G: -0.6

> COc1ccc(OCCSc2nnc(-c3ccccc3)n2N)cc1
  A: 6; B: 101; C: i; D: 1; E: -7; F: 103; G: -1.9

> O=S(=O)(NCc1cccs1)c1cccc2cccnc12
  A: -4; B: 101; C: i; D: 1.3; E: .; F: .; G: 0.7

> Cc1c(Cl)cccc1NC(=O)Cn1c(-c2ccc(F)cc2)noc1=O
  A: 9; B: 104; C: i; D: 1; E: -54; F: 122; G: .

> Cc1ccc(S(=O)(=O)N2CC(O)CC2C(=O)NCc2ccc3c(c2)OCO3)cc1 (configuration not stated)
  A: -4; B: 103; C: i; D: 0.94; E: 50; F: 41; G: .

> Cc1cccc(C(=O)O/N=C/c2ccc(Br)cc2)c1
  A: -1; B: 95; C: i; D: 0.97; E: -7; F: 115; G: .

> CC(C)(C)C1CCC(=NNC(=O)c2cc3c(s2)CCCC3)CC1 (configuration not stated)
  A: 7; B: 41; C: i; D: 0.95; E: -15; F: 33; G: -0.8

> CSc1ccc(C(=O)C2CCCN(S(=O)(=O)N(C)C)C2)cc1 (configuration not stated)
  A: -6; B: 77; C: i; D: 0.91; E: .; F: .; G: .

> CC(=O)c1ccc(NC(=S)NC(NC(=O)c2ccco2)C(Cl)(Cl)Cl)cc1 (configuration not stated)
  A: 1; B: 97; C: i; D: 0.92; E: 0; F: 124; G: 5.5

> COc1ccc(NC2C=CS(=O)(=O)C2)c(OC)c1 (configuration not stated)
  A: -3; B: 103; C: i; D: 0.94; E: 46; F: 123; G: -2.4

> Nc1ccc(C(=O)Nc2ccc(OC(F)(F)C(F)F)c(NC(=O)c3ccc(N)cc3)c2)cc1
  A: 6; B: 61; C: i; D: 0.85; E: .; F: .; G: -1.1

Rewritten as tab-separated lines: two of the compounds above
compound	PKD1 inh	RGS16-Gao	HSV augment	HSV augment primary fold	INS promoter inh	INS promoter inh cell count	GALR2 agonist
Cc1cccc(C(=O)O/N=C/c2ccc(Br)cc2)c1	-1	95	i	0.97	-7	115	.
CC(C)(C)C1CCC(=NNC(=O)c2cc3c(s2)CCCC3)CC1 (configuration not stated)	7	41	i	0.95	-15	33	-0.8

(listing goes on)
Codes: A = PKD1 inh; B = RGS16-Gao; C = HSV augment; D = HSV augment primary fold; E = INS promoter inh; F = INS promoter inh cell count; G = GALR2 agonist
> Cc1ccc(C(=O)NC(Cc2c[nH]c3ccccc23)C(=O)O)cc1 (configuration not stated)
  A: -4; B: 91; C: i; D: 0.74; E: -3; F: 124; G: -1.1

> CC(C)C(c1nnnn1C(C)(C)C)N1CCN(Cc2cccnc2)CC1 (configuration not stated)
  A: 2; B: 99; C: i; D: 1.1; E: .; F: .; G: .

> CC(=O)C1=C(C)NC(SCc2ccc(C#N)cc2)=C(C#N)C1c1ccco1 (configuration not stated)
  A: 6; B: 96; C: i; D: 1.1; E: 66; F: 101; G: 0.0

> CCOc1cccc(C(=O)Nc2cnn(Cc3ccccc3)c2)c1
  A: -1; B: 100; C: i; D: 0.89; E: -42; F: 111; G: -1.4

> COc1cccc2cc(C(=O)N3CCc4ccccc43)c(=O)oc12
  A: 0; B: 97; C: i; D: 1; E: -7; F: 148; G: -0.2

> COc1ccc(C2C(C(N)=O)=C(C)Nc3nc(-c4ccccc4)nn32)cc1OC (configuration not stated)
  A: 2; B: 99; C: i; D: 0.67; E: .; F: .; G: -3.4

> COC(=O)c1c(-c2ccc(C)cc2)csc1NC(=O)C1CC=CCC1C(=O)O (configuration not stated)
  A: 2; B: 103; C: i; D: 0.94; E: .; F: .; G: 0.6

> COc1cc(CNC2CCCC2)c(Br)cc1OCc1ccccc1
  A: 3; B: 102; C: i; D: 0.88; E: .; F: .; G: .

> O=S(=O)(Nc1ccc(Cl)cn1)c1cnc(Cl)c(Br)c1
  A: .; B: 97; C: i; D: 0.89; E: .; F: .; G: .

> Cn1c(/C=C/N(Cc2ccccc2)c2ccccc2)c([N+](=O)[O-])c(=O)n(C)c1=O
  A: -1; B: 92; C: i; D: 1.1; E: .; F: .; G: .

> NC(=O)c1ccc(NC(=O)CSc2nnc(-c3ccccn3)n2N)cc1
  A: 0; B: 99; C: i; D: 0.96; E: 36; F: 111; G: .

> Cc1ccc(NC(=O)COS(=O)c2ccc(C)cc2)cc1 (configuration not stated)
  A: 1; B: 102; C: i; D: 0.91; E: 0; F: 110; G: -3.3

> CN(C)S(=O)(=O)c1cccc(-c2nn(-c3ccccc3)cc2/C=C2\SC(=S)N(CC(=O)O)C2=O)c1
  A: .; B: 100; C: i; D: 1.1; E: .; F: .; G: .

> O=C(NCCc1nnc2ccc(NCc3ccc(Cl)cc3)nn12)c1ccccc1
  A: -1; B: 107; C: i; D: 1.1; E: -6; F: 118; G: .

> O=C(C1=C[C@H](c2ccc(Br)cc2)C[C@H](OCCCCO)O1)N1CCN(Cc2ccccc2)CC1
  A: 4; B: 88; C: i; D: 0.78; E: .; F: .; G: .

> Cc1ccc(-c2cccc(CN3CCN(C4CCN(C(C)C)CC4)C(CCO)C3)c2)o1 (configuration not stated)
  A: -9; B: 102; C: i; D: 0.92; E: .; F: .; G: .

> c1ccc(CC2CCN(c3nnnn3-c3ccccc3)CC2)cc1
  A: 0; B: 100; C: .; D: .; E: 24; F: 119; G: 0.1

> CCC(C)NC(=O)c1cn(-c2cccc(C)n2)cn1 (configuration not stated)
  A: -15; B: 101; C: i; D: 0.97; E: 17; F: 66; G: -1.6

> CN1CCN(C(=O)c2ccc3c(=O)n4c(nc3c2)CCCCC4)CC1
  A: 0; B: 120; C: i; D: 1; E: 42; F: 106; G: -2.7

> CCc1cccc(C)c1NC(=O)COC(=O)C(NS(=O)(=O)c1ccc(Cl)cc1)C(C)O (configuration not stated)
  A: -6; B: 63; C: .; D: .; E: -77; F: 83; G: -1.3

> CC(C)CNC(=O)c1ccc(C2SCC(=O)N2Cc2ccccc2)cc1 (configuration not stated)
  A: -1; B: 100; C: i; D: 0.99; E: 38; F: 109; G: .

> CC1N/C(=C\C(=O)c2ccccc2)N(O)C1(C)C (configuration not stated)
  A: -8; B: 109; C: i; D: 1.1; E: .; F: .; G: -0.6

> O=S(=O)(Nc1ccc(Cl)cn1)c1ccc(Cl)cc1
  A: -2; B: 94; C: i; D: 1; E: -42; F: 108; G: .

> N/C(=N\O)c1ccccc1N1CCCCC1
  A: -5; B: 96; C: i; D: 1; E: .; F: .; G: .

> CC1(C)CC(NC(=O)C(Cl)(Cl)Cl)CC(C)(C)N1
  A: -1; B: 107; C: .; D: .; E: 25; F: 77; G: -0.1

Taken from above.
Result for `CC(C)CNC(=O)c1ccc(C2SCC(=O)N2Cc2ccccc2)cc1` (configuration not stated) under INS promoter inh: 38
Result for `NC(=O)c1ccc(NC(=O)CSc2nnc(-c3ccccn3)n2N)cc1` under PKD1 inh: 0

The list continues.
Codes: A = PKD1 inh; B = RGS16-Gao; C = HSV augment; D = HSV augment primary fold; E = INS promoter inh; F = INS promoter inh cell count; G = GALR2 agonist
> O=C(NCc1ccc(Cl)cc1)c1noc2c1CCCC2
  A: 10; B: 102; C: i; D: 0.99; E: -56; F: 116; G: -1.2

> N#Cc1nc(-c2cccc3ccccc23)oc1NCCN1CCOCC1
  A: -7; B: 108; C: i; D: 0.86; E: -13; F: 110; G: 0.9

> O=C(CC1CCCCC1)NCCCN1CCOCC1
  A: 8; B: 202; C: i; D: 0.73; E: -23; F: 124; G: -2.6

> CCOC(=O)N1CCN(C(=O)c2ccc(CNS(=O)(=O)c3ccc(OC)cc3)cc2)CC1
  A: -4; B: 105; C: i; D: 0.94; E: .; F: .; G: -0.3

> COc1ccc2c(c1OC)C(=O)N1c3cccc(Cl)c3C(=O)OC21 (configuration not stated)
  A: -3; B: 102; C: i; D: 0.83; E: .; F: .; G: -1.2

> Cn1c(=O)c(S(=O)(=O)C(C)(C)C)c(O)c2ccccc21
  A: -3; B: 44; C: i; D: 1.1; E: 14; F: 109; G: -0.3

> CCOc1ccc(NC(=O)COc2nsnc2N2CCCCC2)cc1
  A: -7; B: 100; C: i; D: 1.4; E: .; F: .; G: -1.1

> NC(=S)NNC(=O)COc1ccccc1O
  A: .; B: 107; C: i; D: 0.87; E: .; F: .; G: .

> Cc1cccc(OC(=O)c2ccncc2)c1C
  A: 6; B: 104; C: i; D: 1.1; E: .; F: .; G: .

> CCN1CCN(c2cc(C)c3cc(NC(=S)N4CCCC4)ccc3n2)CC1
  A: -5; B: 103; C: i; D: 0.87; E: .; F: .; G: .

> CCOc1ncccc1C(=O)OCc1ccccc1
  A: -6; B: 97; C: i; D: 1.1; E: 0; F: 87; G: 0.3

> O=C(NCc1ccc2c(c1)CCO2)Nc1ccccc1
  A: .; B: 105; C: i; D: 0.94; E: .; F: .; G: .

> CCCCn1c(=N)n(CC(=O)O)c2ccccc21
  A: -1; B: 101; C: i; D: 1.3; E: .; F: .; G: .

> CCN(CC)S(=O)(=O)c1ccc(C(=O)NCC(c2ccc(OC)cc2)N2CCOCC2)cc1 (configuration not stated)
  A: 2; B: 213; C: i; D: 0.97; E: 43; F: 76; G: .

Sorted by SMILES length (falling): part of the list above.
Codes: A = PKD1 inh; B = RGS16-Gao; C = HSV augment; D = HSV augment primary fold; E = INS promoter inh; F = INS promoter inh cell count; G = GALR2 agonist
> CCN(CC)S(=O)(=O)c1ccc(C(=O)NCC(c2ccc(OC)cc2)N2CCOCC2)cc1 (configuration not stated)
  A: 2; B: 213; C: i; D: 0.97; E: 43; F: 76; G: .

> COc1ccc2c(c1OC)C(=O)N1c3cccc(Cl)c3C(=O)OC21 (configuration not stated)
  A: -3; B: 102; C: i; D: 0.83; E: .; F: .; G: -1.2

> N#Cc1nc(-c2cccc3ccccc23)oc1NCCN1CCOCC1
  A: -7; B: 108; C: i; D: 0.86; E: -13; F: 110; G: 0.9

> O=C(NCc1ccc(Cl)cc1)c1noc2c1CCCC2
  A: 10; B: 102; C: i; D: 0.99; E: -56; F: 116; G: -1.2

> O=C(NCc1ccc2c(c1)CCO2)Nc1ccccc1
  A: .; B: 105; C: i; D: 0.94; E: .; F: .; G: .

> Cc1cccc(OC(=O)c2ccncc2)c1C
  A: 6; B: 104; C: i; D: 1.1; E: .; F: .; G: .
